# Assay outcomes deposited in PubChem BioAssay by National Center for Advancing Translational Sciences (NCATS).
# VDR inh – Inhibitors of the vitamin D receptor (VDR): qHTS. Vitamin D3 receptor (Homo sapiens), P11473. VDR-SRC2-3 peptide fluorescence polarization, 2 h. Potency, µM, for inactives: max response, negative = inhibition, hits mostly inhibitors. 400,000 tested, 0.93% active; active means well fitted inhibition curve with a large enough effect; inconclusive means small, poorly fitted or top-dose-only effect, or another doubt; inactive means no such curve, though single readings can be large or run the other way; further: series mostly up to about 120 µM
# Target sequence (P11473 whole entry, looked up): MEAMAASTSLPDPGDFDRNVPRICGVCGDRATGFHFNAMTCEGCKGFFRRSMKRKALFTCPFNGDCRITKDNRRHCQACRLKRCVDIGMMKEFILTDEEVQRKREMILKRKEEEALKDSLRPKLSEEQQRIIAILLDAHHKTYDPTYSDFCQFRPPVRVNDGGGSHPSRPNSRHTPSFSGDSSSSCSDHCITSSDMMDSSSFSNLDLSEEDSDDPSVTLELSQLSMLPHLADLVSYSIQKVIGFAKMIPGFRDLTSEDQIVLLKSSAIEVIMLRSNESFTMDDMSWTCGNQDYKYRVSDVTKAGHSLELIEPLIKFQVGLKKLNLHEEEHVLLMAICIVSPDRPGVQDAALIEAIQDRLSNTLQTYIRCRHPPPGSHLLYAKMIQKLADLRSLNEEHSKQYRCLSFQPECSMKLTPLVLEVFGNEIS
#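 Inhibition of the VDR/SRC2-3 peptide interaction is quantified by fluorescence polarization. Compounds (23 nl, pintool) incubate with the reagents for 2 hours at ambient room temperature.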
# The depositor's hits bear a star; ? = inconclusive; & = joins results of further samples. On the % scale 0 is the no-effect control and ±100 the full control effect; potency means the concentration at half of the fitted maximal effect. These rows are one share of the data, so the mix of outcomes need not match the whole.
VDR inh,Compound
-18%,COc1ccc(C(=O)c2ccc(CC(=O)O)s2)cc1
-14%,COC(=O)CN(C)C(=O)c1cccc(OC2CCN(S(=O)(=O)N(C)C)CC2)c1
?,CCOc1cccc(NC(=O)/C(C#N)=C/c2cccnc2)c1
4%,O=C(Cc1cccc2ccccc12)N/N=C/c1ccc(Sc2nc3ccccc3s2)o1
-2%,O=C(COC(=O)C1CCN(S(=O)(=O)c2cccs2)CC1)Nc1ccc(F)cc1Cl
-2%,Cc1nnc(SCC(=O)Nc2cc(C(N)=O)cc(C(N)=O)c2)n1-c1ccccc1
-8%,Cc1nn(C)c(C)c1NC(=O)CN1CCC(O)(c2ccc3c(c2)OCO3)CC1
0%,COc1ccc(CCN2C(=O)CC(N3CCOCC3)C2=O)cc1 (configuration not stated)
5%,COCC(=O)NNS(=O)(=O)c1ccccc1[N+](=O)[O-]
6%,O=C(NCCCn1ccnc1)Nc1ccc(Cl)cc1
8%,CCOC(=O)N1CCN(C(=O)CN(c2cccc(C(F)(F)F)c2)S(C)(=O)=O)CC1
-2%,O=C(O)c1ccccc1OC(=O)C12CC3CC(CC(C3)C1)C2

# Some of these compounds in order of their number in VDR inh, low to high:
Molecule | VDR inh
COc1ccc(C(=O)c2ccc(CC(=O)O)s2)cc1 | -18%
COC(=O)CN(C)C(=O)c1cccc(OC2CCN(S(=O)(=O)N(C)C)CC2)c1 | -14%
Cc1nnc(SCC(=O)Nc2cc(C(N)=O)cc(C(N)=O)c2)n1-c1ccccc1 | -2%

# Look-ups from the entries so far.
# Under VDR inh, O=C(Cc1cccc2ccccc12)N/N=C/c1ccc(Sc2nc3ccccc3s2)o1 shows 4%
# Under VDR inh, O=C(NCCCn1ccnc1)Nc1ccc(Cl)cc1 shows 6%
# Under VDR inh, Cc1nn(C)c(C)c1NC(=O)CN1CCC(O)(c2ccc3c(c2)OCO3)CC1 shows -8%

# New compounds follow:
VDR inh,Compound
-12%,COc1ccc(C(O)P(=O)(OC(C)C)OC(C)C)c(OC)c1 (configuration not stated)
0%,COC(=O)c1c(NC(C)=O)sc2c1CCCCC2
-13%,Clc1ccc(-c2ccc(/C=N/Nc3nncc(-c4ccccc4)n3)o2)cc1
1%,O=C(Nc1ccccc1Cl)C1C2CCCCC21 (configuration not stated)
1%,O=C(CCCCCN1C(=O)CCC1=O)Nc1ccc(Cl)c(C(F)(F)F)c1
-6%,COC(=O)c1ccc2nc(-c3cccc(N)c3)cn2c1
20%,O=C(O)COCC(=O)N1CCCN(c2nccc(C(F)(F)F)n2)CC1
-7%,Cc1cc(C)n2nc(C(=O)N/N=C/c3ccc(O)cc3)nc2n1
-7%,COc1ccccc1N(C(=O)CNS(=O)(=O)c1ccccc1)C(C(=O)NCc1ccco1)C(C)C (configuration not stated)
6%,COc1ccc(CNC(=O)CN(C(=O)CCC(=O)Nc2nccs2)c2cccc(C)c2)cc1
-3%,CC(C)(C)OC(=O)N1CCC(c2c(C(=O)N3CCN(C4CCCCC4)CC3)cnn2-c2cccc(Cl)c2)CC1
20%,Cc1onc(-c2ccccc2)c1C(=O)OCCOc1cccc(Cl)c1
-12%,COc1cccc(C(=O)Nc2c(F)cccc2F)c1
3%,Cn1ccnc1SCC(=O)Nc1ccc2ccccc2c1
0%,COc1ccc(NC(=O)Nc2ccc(CC(=O)O)cc2)cc1
?,Cc1cc(OCCCn2ccnc2)cc(C)c1Cl
-6%,O=C(Nc1cccc(C(F)(F)F)c1)Nc1nnc(N2CCCCCC2)s1
-9%,COc1cc(C(=O)Nc2c(C(=O)O)[nH]c3ccc(Br)cc23)cc(OC)c1OC
-4%,CC(=O)c1c(C)[nH]c(C(=O)COC(=O)CN(C)S(=O)(=O)c2ccc(Cl)cc2)c1C
-8%,COc1ccc(CCNC(=O)c2cc(C(C)C)on2)cc1OC
22%,O=C(c1ccccc1)C(O)C(c1ccccc1)N1CCOCC1 (configuration not stated)
8%,COc1ccc(-n2c(=O)c(-c3ccc(Cl)cc3)nc3cncnc32)cc1
-17%,CCOC(=O)N1CCN(S(=O)(=O)c2cc(Br)cc3c2N(C(=O)CC)CC3)CC1
11%,CSCC[C@H](NC(=O)[C@@H]1Cc2ccccc2CN1)C(=O)NC1CCCCC1
-16%,CCOC(=O)c1[nH]c(C)c(C(=O)N2CCN(c3ccc(OC)cc3)CC2)c1C
?,CCCC1(c2ccccc2)NC(=O)N(C/C=C/Cl)C1=O (configuration not stated)
-14%,Cc1ccccc1NC(=O)COC(=O)c1cc[n+]([O-])cc1
18%,COc1ccc(C2NC(=O)CCC2[N+](=O)[O-])cc1OC (configuration not stated)
16%,COc1cccc(CNC(=O)c2sc3ncccc3c2-n2c(C)ccc2C)c1OC
-28%,O=C(OCc1cnc(Cl)s1)c1c(F)cccc1F
-4%,Cc1ccc(/C=N/NC(=O)c2cccc([N+](=O)[O-])c2)o1
2%,O=P(C(=NCCO)NO)(N1CCOCC1)N1CCOCC1
16%,Cc1ccc(-c2cc(C(=O)Nc3ccc(S(=O)(=O)Nc4ncccn4)cc3)[nH]n2)c(O)c1C
-2%,COC(=O)CC1Oc2ccccc2-n2cc(-c3ccc(Cl)cc3)nc21 (configuration not stated)
-10%,O=[N+]([O-])c1ccc(N2CCN(C(=S)NC3CCCCC3)CC2)cc1
-17%,Cn1c(=O)c2cn3c(c2n(C)c1=O)C(c1ccccc1)CC(c1ccccc1)=N3 (configuration not stated)
7%,CN(NC1OC(=O)c2ccccc21)c1ccc(C(F)(F)F)cc1[N+](=O)[O-] (configuration not stated)
0%,CCN(Cc1cc(=O)n2ccsc2n1)Cc1nc2cc(OC)c(OC)cc2c(=O)[nH]1
-14%,COC(=O)N/N=C/c1cccc(OC(=O)c2ccc3c(c2)OCO3)c1
-6%,COc1ccc(-c2nnc(N3CCOCC3)c3ccccc23)cc1
-19%,CCC(C(=O)NCc1ccc(F)cc1)n1nc(C)n2c(cc3occc32)c1=O (configuration not stated)
-4%,CC(=O)Nc1ccc(-c2csc(NC(=O)C3=COCCO3)n2)cc1
-6%,CC(=O)c1c(CSc2ccccc2)oc2ccc(O)c(CN(C)C)c12
-12%,O=S(=O)(NCC(c1ccc2c(c1)OCO2)N1CCOCC1)c1ccc(Cl)cc1 (configuration not stated)
-19%,O=C(Nc1ncnc2c1C(c1ccccc1)c1c(ccc3ccccc13)O2)c1ccccc1 (configuration not stated)
-9%,Cn1cc(Br)c(C(=O)NNC(=O)Nc2ccccc2C(F)(F)F)n1
-2%,COc1cccc(C2/C(=C(\O)c3ccc4c(c3)OCCO4)C(=O)C(=O)N2CCN(C)C)c1 (configuration not stated)
-20%,Clc1ccc(-c2nnc(-c3cccnc3)o2)cc1

# Brought forward from above: seven compounds; new compounds follow.
VDR inh,Compound
-4%,CC(=O)Nc1ccc(-c2csc(NC(=O)C3=COCCO3)n2)cc1
-6%,CC(=O)c1c(CSc2ccccc2)oc2ccc(O)c(CN(C)C)c12
-12%,O=S(=O)(NCC(c1ccc2c(c1)OCO2)N1CCOCC1)c1ccc(Cl)cc1 (configuration not stated)
-19%,O=C(Nc1ncnc2c1C(c1ccccc1)c1c(ccc3ccccc13)O2)c1ccccc1 (configuration not stated)
-9%,Cn1cc(Br)c(C(=O)NNC(=O)Nc2ccccc2C(F)(F)F)n1
-2%,COc1cccc(C2/C(=C(\O)c3ccc4c(c3)OCCO4)C(=O)C(=O)N2CCN(C)C)c1 (configuration not stated)
-20%,Clc1ccc(-c2nnc(-c3cccnc3)o2)cc1
-20%,CC1CC(=O)N(C)c2ccc([N+](=O)[O-])cc2N1 (configuration not stated)
-2%,COc1ccc(Sc2ccccc2CN(C)C)cc1OC
3%,O=C(CCNS(=O)(=O)c1cccc2nsnc12)N1CCc2ccccc21
-7%,CCOc1ccc(S(=O)(=O)N2CCC(C(=O)OC(C)C(=O)NC3CCCCC3C)CC2)cc1 (configuration not stated)
-7%,COCCCNC(=O)Cn1c(=O)n(Cc2ccc(F)cc2)c(=O)c2sccc21
-12%,C[C@@H](CSc1ccccc1)CN1CC[C@H](O)CCC1=O
-6%,CCCN(CCC)Cc1c(C(=O)N/N=C/c2ccsc2)nnn1-c1nonc1N
13%,CC(C)NC(=O)C(C)n1cccc1C(=O)c1ccccc1 (configuration not stated)
7%,COc1cccc(NC(=O)Cn2c(=O)n(-c3ccccc3)c(=O)c3sccc32)c1
10%&-1%&5%&-1%,CCCCCCCCCCCCCCCCCCOC[C@H](COP(=O)([O-])OCC[N+](C)(C)C)OC
8%,Cn1cnnc1SCC(=O)N1CCC(Cc2ccccc2)CC1
-2%,O=S(=O)(Nc1cccc2cn[nH]c12)c1ccc(F)cc1
-3%,Cn1c(=O)c2c(nc(SCC(=O)O)n2Cc2cccc(C(F)(F)F)c2)n(C)c1=O
-7%,Cc1ccccc1-c1nc(CS(=O)(=O)CC(=O)NCCCN2CCCC2)c(C)o1
11%,COc1ccc(-n2cnc3scc(-c4ccc(OC)c(OC)c4)c3c2=O)cc1
-5%,O=[N+]([O-])c1cccc(-n2cc3ccc([N+](=O)[O-])cc3n2)c1
-1%,COc1ccc(CNC(=O)Cn2cncn2)cc1OC
-1%,CCOc1ccc(C(C(=O)NCCC(C)C)N(CCO)C(=O)c2snc(C(N)=O)c2N)cc1 (configuration not stated)
8%,COc1cccc(C2CC(=O)Nc3c2c(=O)nc2c(C)cccn32)c1OC (configuration not stated)
-3%,Cc1cccc(OCC(=O)N/N=C\c2cc3c(cc2[N+](=O)[O-])OCO3)c1C
9%,O=C(Nc1ccc(S(=O)(=O)Nc2ncccn2)cc1)c1ccccc1Br
15%,O=C1CCc2cc(S(=O)(=O)N3CCN(c4cccc(Cl)c4)CC3)ccc2N1
2%,Cc1cccc(S(=O)(=O)N2CCN(Cc3ccc4c(c3)OCO4)CC2)c1
-21%,Cc1c(NS(=O)(=O)c2cc(C(=O)NC(C)c3ccccc3)ccc2Cl)c(=O)n(-c2ccccc2)n1C (configuration not stated)
-5%,COc1ccc(C2C(C(=O)NC(C)C)c3ccccc3C(=O)N2C)cc1OC (configuration not stated)
11%,O=C(Nc1ccccc1)N1CCC2(CC1)CCN(C(=O)c1cccc(F)c1)CC2
5%,Cc1cccc(NC(=O)NNC(=O)COc2ccc3ccccc3c2)c1
-27%,O=C(O)c1cc([N+](=O)[O-])ccc1NCc1ccccc1Cl
-4%,CCCOc1ccc(C(CC(=O)O)NC(=O)C(c2ccccc2)c2ccccc2)cc1 (configuration not stated)
-15%,Cc1ccc(Sc2cc(C(=O)NCCN(C)C)c3ccccc3n2)cc1
21%,CC(Sc1nnc(-c2ccc(C(C)(C)C)cc2)n1C)C(N)=O (configuration not stated)
18%,CC(C)(C)NS(=O)(=O)c1ccc(CCC(=O)NCc2ccccn2)cc1
27%,O=C(Nc1cccc(Cl)c1)N1CCOCC1
-5%,COc1cc(C(=O)N2CCN=C2c2ccccc2)cc(OC)c1OC
23%,COC(=O)c1ccc(N2CCN(C)CC2)c(NC(=O)c2sc3ccccc3c2Cl)c1
-21%,Cc1ccc2nc3c(cc(C(=O)NCc4ccco4)c(=N)n3C(C)C)c(=O)n2c1

# 5 of the compounds above, as tab-separated lines:
smiles	VDR inh
CC(Sc1nnc(-c2ccc(C(C)(C)C)cc2)n1C)C(N)=O (configuration not stated)	21%
CC(C)(C)NS(=O)(=O)c1ccc(CCC(=O)NCc2ccccn2)cc1	18%
O=C(Nc1cccc(Cl)c1)N1CCOCC1	27%
COc1cc(C(=O)N2CCN=C2c2ccccc2)cc(OC)c1OC	-5%
COC(=O)c1ccc(N2CCN(C)CC2)c(NC(=O)c2sc3ccccc3c2Cl)c1	23%

# Other results follow:
VDR inh,Compound
-1%,CCN(CC)C(=O)[C@H]1C[C@H](CC(=O)NCc2cccc(C(F)(F)F)c2)C(=O)N2CCc3c([nH]c4cc(-c5ccco5)ccc34)[C@]12C
6%,C=CCSc1nnc(NC(=O)CCNC(=O)c2ccco2)s1
2%,CCOc1ccc(N2C(=O)/C(=C/c3ccccc3)N=C2SC)cc1
0%,CCOC(=O)Cc1nc2ccccc2[nH]1
-1%,CCCCN(CCCNC(=O)c1cc(Nc2ccc(OC)c(OC)c2)nc2ccccc12)c1ccccc1
-21%,O=S(=O)(c1ccc(Nc2ccc(-c3ccc4c(c3)OCCO4)nn2)cc1)N1CCCC1
-9%,Cc1ccc(S(=O)(=O)N2CCCCC2)cc1NC(=O)CCNC(=O)c1ccc([N+](=O)[O-])cc1
3%,CCn1c(SCC(=O)N2CCCC2)nnc1-c1ccco1
1%,O=C(O)c1ccccc1NCCO
-9%,COC(=O)Cc1ccc(NC(=O)c2ccc(C(C)(C)C)cc2)cc1
-16%,Nc1nnnn1CC(=O)N/N=C/c1ccc(-c2cccc(Cl)c2)o1
-10%,C[C@H](CCC(=O)OCc1cn(CC(=O)c2ccc(O)cc2)nn1)C1CC[C@H]2[C@@H]3CC[C@@H]4C[C@H](O)CC[C@]4(C)[C@H]3C[C@H](O)[C@]12C (some centres not stated)
-8%,Cc1ccc2c(c1)C1CN(C)CCC1N2C(=O)COc1ccc(N(C)C(=O)c2ccccc2)cc1 (configuration not stated)
-1%,CS(=O)(=O)c1ccc(Cl)c(NC(=O)c2cccc(Br)c2)c1
-15%,CCCCCN(C(=O)NC(=O)Nc1ccc(C)cc1C)S(C)(=O)=O
2%,CCc1cccc2c(C=C(C#N)C#N)cn(CC(=O)N3CCCCCC3)c12
-4%,Cc1ccc(S(=O)(=O)/N=C(\CN2CCOCC2)N2CCOCC2)cc1
14%,Cc1cccc2nc(Cn3c(=O)n(CCC(=O)NCc4ccco4)c(=O)c4sccc43)cc(=O)n12
3%,Cn1c(CN2CCCC2)nc2cc(NC(=O)Nc3ccccc3)ccc21
1%,O=C(NCc1ccco1)c1cnc2ccccn2c1=O
6%,COc1ccccc1/C=C\C=N\NC(=O)CCn1nnc2ccccc21
-21%,CSc1nc2ccc(N3C(=O)C4CCCCC4C3=O)cc2s1 (configuration not stated)
0%,CCOC(=O)C1CCN(C(=S)NC2CC3C=CC2C3)CC1 (configuration not stated)
